GIRK2 act – GIRK2 channel activation; HEK293-GIRK2 thallium flux, Thallos fluorescence; calls only for hits at 25 µM; actives 0.05% (n = 63,000); AID 1259325;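 active = among the strongest 0.2% of first-round signals and kept after retests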;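 note: first round at about 10 µM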
Target sequence (P48051 whole entry, looked up): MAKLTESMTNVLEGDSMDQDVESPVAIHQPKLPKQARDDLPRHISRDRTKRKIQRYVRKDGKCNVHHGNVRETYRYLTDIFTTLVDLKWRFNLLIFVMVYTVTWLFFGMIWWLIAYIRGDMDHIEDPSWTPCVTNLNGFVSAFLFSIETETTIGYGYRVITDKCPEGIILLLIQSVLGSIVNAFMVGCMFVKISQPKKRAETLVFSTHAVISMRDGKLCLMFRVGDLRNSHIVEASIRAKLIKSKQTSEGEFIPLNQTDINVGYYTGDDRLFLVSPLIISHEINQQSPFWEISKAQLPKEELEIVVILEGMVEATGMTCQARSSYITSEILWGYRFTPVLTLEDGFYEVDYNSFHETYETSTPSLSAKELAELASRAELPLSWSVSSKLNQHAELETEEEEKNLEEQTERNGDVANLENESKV
Calls only; i = inactive.

#	smiles	GIRK2 act
1	N#CC1=CN(c2ccc(Br)cc2)c2ccc(F)cc2S1(=O)=O	i
2	CC(=O)N1CCC(C(=O)Nc2ccc(-c3ccn[nH]3)cc2)CC1	i
3	COc1ccc(-c2ccc(N3CCN(C(=O)COc4ccc5c(c4)OCO5)CC3)nn2)cc1	i
4	CC(C)Cn1c(=O)[nH]c2c(C(=O)N3CCN(C(C)C)CC3)snc2c1=O	i
5	COCCCn1c(-c2cccs2)nc2oc3ccccc3c(=O)c2c1=O	i
6	CC(C)Cn1c(=O)c2ccccc2n(Cc2nc(-c3ccc(Br)cc3)no2)c1=O	i
7	Cc1cc(NC(=O)c2ccccc2C)n(-c2nc(-c3ccc4c(c3)OCO4)cs2)n1	i
8	CC1CN(C(=O)c2cc3c(=O)n(C)c(=O)n(C)c3n2Cc2ccco2)CC(C)O1 (stereo not given)	i
9	O=C(Cn1c(=O)c(S(=O)(=O)c2ccccc2)cc2ccccc21)NCc1ccccc1	i
10	COc1ccccc1Nc1nn2c(=O)c3cc(OC)c(OC)cc3nc2s1	i
11	Cc1nc2ccccn2c1C(=O)N1CCC2(CC1)OCCCO2	i
12	O=C(c1cc(=O)c2ccccc2o1)N1CCN(CC(O)C2CC2)CC1 (stereo not given)	i
13	CCN(CC)CCn1nc(-c2ccccc2)ccc1=O	i
14	O=C(Cn1cnc2c(-c3ccc(F)cc3)csc2c1=O)NCc1ccccc1	i
15	O=S(=O)(c1ccc2c(c1)CCCC2)N1CCN(c2ccc(-c3ccco3)nn2)CC1	i
16	Cc1nnsc1C(=O)N1CCN(c2ccc(-c3noc(C4CC4)n3)cn2)CC1	i

Down the list, as entered above.
Entries 13–16 in GIRK2 act, in turn: i, i, i, i

Next section:
#	smiles	GIRK2 act
17	Cc1cc(NC(=O)CSc2ncc(-c3cccc([N+](=O)[O-])c3)n2-c2ccccc2)no1	i
18	COCc1nc2ccccc2n1CC(=O)Nc1ccccc1	i
19	CCCCc1ccc(NC(=O)c2nnn(-c3ccc(Br)cc3)n2)cc1	i
20	O=C(OC1CN(c2nc3c(C(F)(F)F)cccc3s2)C1)c1cnccn1	i
21	COc1ccc(NC(C)=O)cc1NC(=O)c1cc(=O)c(OCc2ccc(F)cc2)c[nH]1	i
22	COc1ccccc1N1CCN(CCNC(=O)Cc2ccc(SC(C)C)cc2)CC1	i
23	Cc1ccc(=O)n(CC(=O)N2CCN(CCc3ccccc3)CC2)n1	i
24	CSc1ccc(NC(=O)C2CCCC2)nn1	i
25	CNC(=O)CSc1nnc(N2CCN(C(=O)c3cc(-c4ccccc4)on3)CC2)s1	i
26	CCN1C(=O)CCc2cc(NC(=O)c3cc(OC)cc(OC)c3)ccc21	i
27	C[C@]12C=CC(=O)C=C1CC[C@@H]1C2=CC[C@]2(C)[C@@H](C(=O)CN3CCN(c4cc(N5CCCC5)nc(N5CCCCC5)n4)CC3)CC[C@@H]12	i
28	CCC1(CC)NC(=O)N(CC(=O)Nc2c(C)cc(C)cc2C)C1=O	i
29	CCOc1ccc2c(c1)c(=O)c(S(=O)(=O)c1ccccc1)cn2CC(=O)Nc1ccc(OC)cc1	i
30	COc1ccccc1N1CCN(CCNC(=O)Nc2ccccc2C)CC1	i
31	Cc1noc(CNC(=O)C2CCN(C(=O)CSc3ccc(F)cc3)CC2)n1	i
32	O=C(CSc1nc2c(-c3ccccc3)c[nH]c2c(=O)n1C1CC1)NC1CCCCC1	i
33	O=C(OC1CN(c2nc3c(F)cc(F)cc3s2)C1)c1ccsc1	i
34	CCN(CC)C(=O)Oc1ccc2c(=O)c(-c3ccc(OC)cc3)c(C(F)(F)F)oc2c1	i
35	CC(Cn1nc(-c2cccs2)ccc1=O)C(=O)Nc1nc2ccccc2s1 (stereo not given)	i
36	CC(=O)Nc1ccc(S(=O)(=O)N2CCN(Cc3nc4ccccc4[nH]3)CC2)cc1	i
37	COc1ccc(OCC(O)Cn2c(N3CCCC3)nc3c2c(=O)n(C)c(=O)n3C)cc1 (stereo not given)	i
38	CCOc1cc(NC(=O)Cc2ccc(OC)cc2)ncn1	i
39	CC(=O)Nc1ccc(NC(=O)C2CCCN(c3ccc(-c4ccc(Cl)cc4)nn3)C2)cc1 (stereo not given)	i
40	O=C(NCC1CCN(S(=O)(=O)c2cccnc2)CC1)C(=O)NCC1CCCO1 (stereo not given)	i
41	CCOC(=O)c1ccc(NC(=O)COc2cc(C)nc(N3CCCCCC3)n2)cc1	i
42	COCCn1c(SCC(=O)c2c[nH]c3ccccc23)nc2cc(C(=O)NCC(C)C)ccc2c1=O	i
43	CS(=O)(=O)N1CCC(C(=O)N2CCC(CSc3ccccn3)CC2)CC1	i
44	CCOC(=O)C1=C(C)NC(=O)NC1c1ccc(C)cc1 (stereo not given)	i
45	Cc1ccc(N2CCN(S(=O)(=O)c3ccc(Cl)c(Cl)c3)CC2)nn1	i
46	NC(=O)Cn1nc(-c2cccs2)c2sc(N3CCCCC3)nc2c1=O	i
47	CCN(CC)CCSc1nnc(N2CCN(c3ccccc3OC)CC2)s1	i
48	COc1ccc(S(=O)(=O)NCCc2csc(-c3ccc(F)cc3)n2)c(OC)c1	i
49	O=C(c1cccs1)N1CCC(S(=O)(=O)Cc2ccco2)CC1	i
50	COc1ccccc1-n1c(C)cn2c3c(=O)n(Cc4ccccc4C)c(=O)n(C)c3nc12	i
51	Cc1ccc(Cl)cc1S(=O)(=O)NCCN1CCN(c2ccccc2)CC1	i
52	CCNS(=O)(=O)c1ccc(F)c(OCC)c1	i
53	CC(C)c1cccc(NC(=O)Cn2c(=O)cc(-c3nc(C4CC4)no3)c3ccccc32)c1	i
54	Cn1cc(-c2cccs2)nc1CCNC(=O)Nc1ccccc1Cl	i
55	COc1ccc(Cn2c(=O)[nH]c3c(-c4ccccn4)nsc3c2=O)c(OC)c1	i
56	O=C(NCC1CCCO1)C1=Cc2ccccc2OC=C1 (stereo not given)	i
57	COCCN(CCOC)C(=O)c1cc2c(-c3ccccc3)nn(-c3ccccc3)c2s1	i
58	O=C(NCC1(O)CCc2ccccc2C1)c1ccc2nsnc2c1 (stereo not given)	i
59	Cc1cc(C(F)(F)F)nc(CCNC(=O)c2ccc(Br)o2)n1	i
60	CC12CC(NC(=S)N1c1ccc(F)cc1F)c1ccccc1O2 (stereo not given)	i
61	COc1ccc(CCNC(=O)N(Cc2ccoc2)Cc2cccs2)cc1	i
62	O=C(NCCCn1cccc1)c1cc(-c2ccc3c(c2)OCO3)n[nH]1	i
63	O=C1SC(Nc2ccc(Br)cc2)C(=O)N1CCN1C(=O)c2ccccc2C1=O (stereo not given)	i
64	CCOc1ccccc1NC(=O)c1n[nH]nc1Nc1ccc(Cl)cc1	i
65	O=C(Nc1ccccc1C(F)(F)F)N1CCN(c2ccc(-c3ccncc3)nn2)CC1	i
66	CC(=O)Nc1ccc(NC(=O)c2ccc(-c3ccccc3Cl)o2)cc1	i
67	Cn1nc(-c2ccccc2)cc1C(=O)NCC#CCOc1ccccc1C(N)=O	i
68	COc1ccc(CN2CC(c3nc(-c4cccs4)no3)CC2=O)cc1 (stereo not given)	i
69	O=C(NCc1ccccn1)c1ccc(OCc2nc(-c3ccco3)cs2)cc1	i
70	COc1c(C)c(OCC(O)C(C)(C)O)cc(CO)c1CO (stereo not given)	i
71	COc1ccc(Cn2c(SCC(=O)Nc3ncn[nH]3)nc3ccccc3c2=O)cc1	i
72	Oc1ccc(/C=C/c2cc(O)cc3c2[C@H](c2cc(O)cc(O)c2)[C@H](c2ccc(O)cc2)O3)cc1	i

(next part)
#	smiles	GIRK2 act
73	CCOC(=O)CNC(=O)CN1CCN(Cc2nc3ccccc3[nH]2)CC1	i
74	Cc1ccc(C(C)NC(=O)C2=NCCN2)cc1 (stereo not given)	i
75	C=CCn1c(=S)[nH]c2cc(C(=O)N3CCc4ccccc4C3)ccc2c1=O	i
76	COCCCn1cnc2c(-c3ccccc3)cn(CC(=O)NCc3ccc(Cl)cc3)c2c1=O	i
77	CCOC(=O)C1CCCN(C(=O)CN2CCN(c3cccc(Cl)c3)C2=O)C1 (stereo not given)	i
78	O=C(c1c[nH]c2ccccc12)N1CCC(Oc2ccc(C(F)(F)F)cn2)CC1	i
79	COC(=O)Cn1c(=O)c2c(nc3n(-c4cc(C)ccc4C)c(C)cn23)n(C)c1=O	i
80	Cc1ccc(N(C)S(=O)(=O)c2ccsc2C(=O)NC2CCC(C)CC2)cc1 (stereo not given)	i
81	Cc1cccc(N2CCN(C(=O)CCn3c(=O)[nH]c4ccsc4c3=O)CC2)c1	i
82	CC/C=C\[C@H](O)[C@H](O)C1=C(C)C(=O)[C@]2(O1)C(=O)N[C@@](OC)(C(=O)c1ccccc1)C2O (stereo not given in full)	i
83	CCN1CCc2ncnc(SCC(=O)Nc3cccc(C(F)(F)F)c3)c2C1	i
84	Cc1nc(N2CCN(C(=O)c3ccc(F)cc3F)CC2)cc(-n2cccn2)n1	i
85	Cc1nn(-c2nc3c(c(=O)n(CC(=O)C(C)(C)C)c(=O)n3C)n2CC(C)C)c(C)c1C	i
86	CCn1c(=O)c2c(nc3n(-c4ccc(OC)cc4OC)c(-c4ccccc4)cn23)n(C)c1=O	i
87	CCc1nc2c(sc3cccc(F)c32)c(=O)n1CC(=O)NCc1ccc(C)cc1	i
88	CCCCCCCCCCCCCCCCCC(=O)OCC	i
89	Cc1ccc(C(=O)NCC#CCN(C)Cc2ccccc2)cc1C	i
90	CC(C)(Sc1ccc(CCN(CCCCC2CCCCC2)C(=O)NC2CCCCC2)cc1)C(=O)O	i
91	Cc1ccc(-c2nnc(CN3CCC(C)CC3)o2)cc1	i
92	COc1ccc(NC(=O)CSc2cc(-c3ccccn3)nc(C)n2)cc1Cl	i
93	CC(C)(C)NCC(O)c1ccc(O)c(CO)c1 (stereo not given)	i
94	COc1ccc(CNC(=O)c2cn(-c3ccc(C)cc3)nn2)c(OC)c1	i
95	Cn1c(C2CCN(S(C)(=O)=O)CC2)nn(CC(=O)c2ccccc2)c1=O	i
96	CCOCCn1c(=O)c2c(nc3n2CC(C)CN3c2ccccc2)n(C)c1=O (stereo not given)	i
97	Cc1ccc(Cl)cc1NCCn1c(C)c(C)n2c3c(=O)[nH]c(=O)n(C)c3nc12	i
98	CC(=O)Nc1ccc(C(=O)N2CC(c3nc(-c4ccc[nH]c4=O)no3)C2)cc1	i
99	Cc1c(C)n2c3c(=O)n(CCc4ccccc4)c(=O)n(C)c3nc2n1C(C)C	i
100	COc1cccc2cc(C(=O)Nc3cc(-c4ccco4)nn3CCO)c(=O)oc12	i
101	COc1cccc(CCNC(=O)c2ccc(NC(=O)c3cn(C)nc3OC)cc2)c1	i
102	O=C(NCC(O)(c1ccccc1)C(F)(F)F)C(=O)Nc1ccccc1Cl (stereo not given)	i
103	Cc1cc(C(O)CCNC(=O)/C=C/c2ccc3c(c2)OCO3)c(C)o1 (stereo not given)	i
104	CCNc1cc(C)nc(NCCNC(=O)COc2ccc(-n3cccn3)nn2)n1	i
105	CCOC(=O)c1sc2ccccc2c1S(=O)(=O)Nc1ccc(OC)c(Cl)c1	i
106	CCc1ccc(NC(=O)Cn2ccn(-c3cc(C)cc(C)c3)c(=O)c2=O)cc1	i
107	COCCNC(=O)Nc1nnc(-c2sc(C)nc2C)o1	i
108	Cc1cc(C)n(-c2ncc(NC(=O)c3ccc(Br)o3)cn2)n1	i
109	CC(O)CN1CCN(C(=O)C2(c3cccs3)CCCC2)CC1 (stereo not given)	i
110	CSc1ncc(Cl)c(C(=O)Oc2cc(C)c(Cl)c(C)c2)n1	i
111	CC1CCN(c2ncnc3c2cnn3Cc2ccccc2Cl)CC1	i
112	CC(=O)Nc1nc2c(s1)CN(C(=O)C1(c3cccs3)CCCC1)CC2	i

5 compounds drawn at random from the list so far:
#	smiles	GIRK2 act
1	N#CC1=CN(c2ccc(Br)cc2)c2ccc(F)cc2S1(=O)=O	i
24	CSc1ccc(NC(=O)C2CCCC2)nn1	i
22	COc1ccccc1N1CCN(CCNC(=O)Cc2ccc(SC(C)C)cc2)CC1	i
54	Cn1cc(-c2cccs2)nc1CCNC(=O)Nc1ccccc1Cl	i
34	CCN(CC)C(=O)Oc1ccc2c(=O)c(-c3ccc(OC)cc3)c(C(F)(F)F)oc2c1	i

A draw from above in order of SMILES length, descending:
#	smiles	GIRK2 act
97	Cc1ccc(Cl)cc1NCCn1c(C)c(C)n2c3c(=O)[nH]c(=O)n(C)c3nc12	i
67	Cn1nc(-c2ccccc2)cc1C(=O)NCC#CCOc1ccccc1C(N)=O	i
12	O=C(c1cc(=O)c2ccccc2o1)N1CCN(CC(O)C2CC2)CC1 (stereo not given)	i
5	COCCCn1c(-c2cccs2)nc2oc3ccccc3c(=O)c2c1=O	i

More results follow:
#	smiles	GIRK2 act
113	COc1ccc2nc(-n3nc(C)cc3NC(=O)c3ccno3)sc2c1	i
114	COc1ccccc1-n1c(C)c(C)n2c3c(=O)n(CCc4ccccc4)c(=O)n(C)c3nc12	i
115	CCn1cnc2c(-c3ccccc3)cn(CC(=O)Nc3cccc(C#N)c3)c2c1=O	i
116	O=C(NCCc1ccc(F)cc1)C(F)(F)F	i
117	O=C(Nc1ccccc1)c1cc(=O)c(OCc2ccccc2)c[nH]1	i
118	COc1cccc(N2CC(C(=O)NCC(O)c3ccoc3)CC2=O)c1 (stereo not given)	i
119	CCc1ccc(-n2c(-c3ccccc3)cn3c4c(=O)n(CC(=O)OC)c(=O)n(C)c4nc23)cc1	i
120	O=C(NCC1CCN(C(=O)c2ccncc2)CC1)Nc1ccccc1Cl	i
121	O=C(Nc1nc2ccc(Cl)cc2s1)c1coc(NC(=O)C2CCC2)n1	i
122	COc1ccc(-c2n[nH]c(C(F)(F)F)c2-c2ccccc2)c(O)c1	i
123	COC(=O)c1ccc(C(=O)NCc2ccc(C(=O)c3cccs3)s2)cc1	i
124	COC(=O)c1sccc1S(=O)(=O)Nc1ccc(C(C)C)cc1	i
125	Cc1cc(NC(=O)CSc2nc3ccc(N4CCCCC4)cc3c(=O)n2Cc2ccccc2)n[nH]1	i
126	COc1ccc(C)cc1NC(=O)C(C)n1ncccc1=O (stereo not given)	i
127	CCC(C)(C)C(=O)C(=O)N1CCCC[C@H]1C(=O)OC(CCc1ccc(OC)c(OC)c1)c1cccc(N)c1 (stereo not given in full)	i

These rows are one share of the data; count on the stated rates, not on these rows.
